# PINK1 expr mod: A Quantitative High throughput Screen to Identify Chemical Modulators of PINK1 Expression; PINK1 immunofluorescence, high-content cytometry, 24 h; Potency, µM (top dose mostly 76.6 µM), inactives show at the highest dose activation (PINK1 increase), usual class: activators; actives 0.2% (n = 410,000); AID 624263, 2012; active = well fitted activation curve with a large enough effect; inconclusive = small, poorly fitted or top-dose-only effect; inactive = flat fitted curve, though single readings scatter; cell line not stated here;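 also: potency is read from the fitted curve at half-maximal effect; % of control where 0% means no effect; nearly all actives have a fitted effect of over 65% in size; a mitochondrial uncoupler was the plate control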
#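 Compound titrations (5 concentrations, 24 h) on a stable cell line; DMSO and CCCP controls. Endpoint: fixed-cell PINK1 immunofluorescence with mitochondrial, cell and nuclear markers, scanned by microplate cytometer.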
# TRPML1 agonist: qHTS for Agonists of the Human Mucolipin Transient Receptor Potential 1 (TRPML1). TRPML1-expressing cells, Ca2+ dye fluorescence, FDSS; host cell line not named in the record; reference of the full effect not given here. AID 624414, 2012. Mucolipin-1 (Homo sapiens), Q9GZU1. actives 0.12% (n = 410,000). activation, % (test concentration not listed); in the data active = activation above about 50%; inconclusive = about 30% to 50%; inactive = below about 30%; also: 0% is about no effect; the text of the record puts the active cut at 80%
# Target sequence (Q9GZU1 whole entry, looked up): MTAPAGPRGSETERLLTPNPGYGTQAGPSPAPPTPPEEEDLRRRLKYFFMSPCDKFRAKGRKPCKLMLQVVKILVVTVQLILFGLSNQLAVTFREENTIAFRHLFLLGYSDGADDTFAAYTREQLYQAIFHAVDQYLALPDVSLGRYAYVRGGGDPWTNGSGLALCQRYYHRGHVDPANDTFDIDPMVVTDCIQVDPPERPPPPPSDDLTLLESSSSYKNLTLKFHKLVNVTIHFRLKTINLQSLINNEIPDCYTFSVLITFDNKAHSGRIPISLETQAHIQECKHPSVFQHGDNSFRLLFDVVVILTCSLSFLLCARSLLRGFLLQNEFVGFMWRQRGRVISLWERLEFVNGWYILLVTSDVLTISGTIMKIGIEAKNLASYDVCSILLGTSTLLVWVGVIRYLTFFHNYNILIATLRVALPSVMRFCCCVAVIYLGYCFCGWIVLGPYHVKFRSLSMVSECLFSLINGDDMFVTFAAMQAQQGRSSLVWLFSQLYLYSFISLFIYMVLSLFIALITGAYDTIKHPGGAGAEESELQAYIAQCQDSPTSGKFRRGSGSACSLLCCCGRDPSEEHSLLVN
#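 Cells: TRPML1-DL, 1X Tet inducer, ~16 h at 37 degrees C/5% CO2. Dye: ABD Ca8 no-wash + quencher, 45-90 min RT. Read: 10 s baseline, compound add, 110 s agonist phase; 54-4 EC80 (4uM final), 110 s antagonist phase.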
# Numbers without * were called inactive; ? = inconclusive.
# Sample of the layout, two compounds:
Structure,PINK1 expr mod,TRPML1 agonist
COc1ccc(OC)c(NC(=O)Cn2c(=O)n(-c3ccc(Cl)cc3)c(=O)c3c(C)c(C)sc32)c1,3.4%,-0.8
CCN(C(=O)Cn1c(=O)n(CCCS(=O)(=O)C2CCCCC2)c(=O)c2ccccc21)c1cccc(C)c1,2.7%,-0.8

# The listing (from the top)
Structure,PINK1 expr mod,TRPML1 agonist
COc1ccc(OC)c(NC(=O)Cn2c(=O)n(-c3ccc(Cl)cc3)c(=O)c3c(C)c(C)sc32)c1,3.4%,-0.8
CCN(C(=O)Cn1c(=O)n(CCCS(=O)(=O)C2CCCCC2)c(=O)c2ccccc21)c1cccc(C)c1,2.7%,-0.8
COC(=O)c1ccccc1NC(=O)c1cc2c(s1)-c1ccccc1OC2,1.6%,-0.5
COc1ccc(OC)c(CNC(=O)c2cc3cc4ccc(OC)cc4nc3o2)c1,0.6%,-0.6
Cc1cc(=O)n2nc(N3CCC(C(=O)Nc4c(C)cccc4C)CC3)sc2n1,2.1%,-0.9
Cc1ccc(-n2c(SCC(=O)N3CCC(C)CC3)nc3c([nH]c4ccccc43)c2=O)cc1,1.7%,0.0
CCOC(=O)N1CCN(C(=O)CN(c2cc(C)ccc2OC)S(=O)(=O)c2ccc(C)cc2)CC1,-5.5%,2.5
Cc1ccc(NC(=O)Nc2ccc3c(c2)N(C)C(=O)c2ccccc2S3)c(C)c1,-0.4%,2.7
Cc1cc(C)c2oc(-c3cccc(NC(=O)COc4ccccc4Cl)c3C)nc2c1,1.3%,0.3
Cc1cccc(NC(=O)C2CCN(c3nnc(C)c4c(C)n(-c5ccccc5)nc34)CC2)c1C,0.7%,-0.3
Cc1cccc(Cn2cc3c(=O)n(CC(=O)Nc4ccc(C)c(F)c4)nc-3c3cc(F)ccc32)c1,11%,1.7
COc1ccc(C)cc1NC(=O)c1cc(S(=O)(=O)N2CCC(C)CC2)cn1C,-0.8%,1.0
CCSc1nnc2c(n1)OC(c1ccc(OC)cc1OC)N(C(C)=O)c1ccccc1-2 (stereo not drawn),1.8%,-0.3
CCOc1ccc(N2C(=O)c3[nH]nc(-c4ccccc4)c3C2c2ccc(O)c(OC)c2)cc1 (stereo not drawn),-0.2%,3.0
FC(F)(F)c1ccc2c(c1)ncc1c(-c3ccccc3)nn(-c3ccccc3)c12,2.6%,0.2
O=C(Nc1ccc(C(=O)OCc2cc(=O)n3nc(C4CC4)sc3n2)cc1)c1cccc(Cl)c1,0.9%,-0.9
Cc1ccc(CCNC(=O)c2cc3c(=O)n(C)c4ccccc4c3n2C)cc1,2.1%,-0.7
CCc1nn(CC(=O)Nc2ccc(N(CC)CC)cc2C)c(=O)c2cc3sccc3n12,1.1%,-0.6
Cc1ccc2nc(N(Cc3cccnc3)C(=O)C3COc4ccccc4O3)sc2c1 (stereo not drawn),3.6%,0.4
COc1ccc(CNC(=O)c2cc3cc(C)ccc3n2C)cc1,1.1%,-0.7
CCc1nc2cccnc2n1-c1ccc(CC(=O)Nc2ccccc2Cl)cc1,-0.4%,0.1
Cc1c(C(=O)Nc2ccccc2)sc2nc(-c3cc4cc(Cl)ccc4oc3=O)[nH]c(=O)c12,3.4%,-0.4
CCN1CCN(C(=O)c2cnn(-c3ccc(F)cc3F)c2C2CCN(C(=O)OC(C)(C)C)CC2)CC1,0.0%,1.0
Cn1c(=O)cc(OCC(=O)N2CCN(c3ccccc3)CC2)c2ccccc21,-0.7%,-0.4
COc1ccccc1NC(=O)CCS(=O)(=O)c1cc2c3c(c1)CCN3C(=O)CC2,1.4%,-0.8
CCCN(CCC)S(=O)(=O)c1ccc(C(=O)Nc2cccc(-c3nc4ccccc4[nH]3)c2)cc1,-1.5%,-0.4
CCOc1ccc(Nc2oc(/C=C/c3cc(OC)c(OC)c(OC)c3)nc2C#N)cc1,6.3%,2.9
COc1ccccc1-c1nc2n(n1)C(c1ccccc1Cl)C(C(=O)Nc1cccnc1)=C(C)N2 (stereo not drawn),1.0%,-0.9
COCCNC(=O)CCCn1c(=O)[nH]c2ccsc2c1=O,1.7%,-0.3
COc1cc(Cl)c(NC(=O)CN(C)S(=O)(=O)c2ccc3c(c2)CCCC(=O)N3)c(OC)c1,-0.1%,4.5

# Compound profiles, as listed above.
# Record of `COCCNC(=O)CCCn1c(=O)[nH]c2ccsc2c1=O` → PINK1 expr mod: 1.7%; TRPML1 agonist: -0.3
# Record of `CCOc1ccc(Nc2oc(/C=C/c3cc(OC)c(OC)c(OC)c3)nc2C#N)cc1` → PINK1 expr mod: 6.3%; TRPML1 agonist: 2.9
# Record of `CCN1CCN(C(=O)c2cnn(-c3ccc(F)cc3F)c2C2CCN(C(=O)OC(C)(C)C)CC2)CC1` → PINK1 expr mod: 0.0%; TRPML1 agonist: 1.0

# Continuation.
Structure,PINK1 expr mod,TRPML1 agonist
CCCCN(CCCC)c1ccc(Cn2ccc3ccccc32)cc1,?,-0.1
CCN(CC)S(=O)(=O)c1ccc2c(c1)N(CC(=O)N1CCN(c3ccccc3F)CC1)C(=O)CO2,-0.3%,0.3
Cc1c(C(=O)N(Cc2ccco2)Cc2ccccc2Cl)oc2ccc(F)cc12,2.8%,3.2
O=C(Cn1c(SCc2cccc(F)c2)nc2cccnc21)Nc1ccc(F)c(Cl)c1,3.7%,0.0
COc1ccc(Cn2c(=O)[nH]c3cc(C(=O)N4CCN(c5cc(C)ccc5C)CC4)ccc3c2=O)cc1,2.5%,-0.1
CC(C)c1nc2ccc(C(=O)NCc3ccc(N(C)C)cc3)cc2o1,0.1%,-1.3
Cc1oc2c(C)c3oc(=O)c(CCC(=O)N4CCCCC4)c(C)c3cc2c1C,0.8%,3.8
COc1ccc2nc3sc(C(=O)NCCc4ccc(Cl)cc4)cc3cc2c1,1.1%,-0.6
Cc1ccc(OCC(=O)Nc2nonc2-c2ccc(C)c(C)c2)cc1C,1.0%,1.6
Cc1cc(Cl)ccc1NC(=O)CCCn1nc(C)c2c(C)n(-c3ccccc3)nc2c1=O,-0.3%,1.7
CCCCOc1ccc(CNC(=O)c2cnc3sc(N4CCOCC4)nn3c2=O)cc1,0.6%,1.6
Cc1cc(C)cc(OCCSc2nc(-c3ccc(C(C)(C)C)cc3)nc3cc(=O)[nH]n23)c1,6.0%,1.0
CCN(C(=O)CSc1nc(-c2ccc(C(C)C)cc2)no1)c1cccc(C)c1,22%,1.9
Cc1ccc(-n2cc(-c3ccccc3)c3c(N4CCCCC4)ncnc32)cc1,1.3%,0.5
COc1cc2c(cc1NC(=O)COc1ccc(Br)cc1C)oc1ccccc12,1.3%,-0.3
CCOC(=O)c1cc2c(=O)n3ccccc3nc2n(CC2CCCO2)c1=NC(=O)c1ccc(C)cc1 (stereo not drawn),3.0%,2.3
COc1ccc(NC(=O)Nc2nnc(N3CCCCCC3)s2)cc1,2.3%,0.4
Cc1ccc(Cl)cc1NC(=O)Cn1cc2c(n1)CCCCC2,2.2%,0.0
CCN1CCN(C(c2ccccc2F)c2c(O)cc(C)n(CCOC)c2=O)CC1 (stereo not drawn),-0.5%,0.0
CCOc1ccc(NC(=O)Cn2cc(C(=O)c3ccc(CC)cc3)c(=O)c3ccc(C)nc32)cc1,10%,0.4
CCc1nc2nc(C)cc(Nc3cccc(C)c3C)n2n1,1.0%,-0.3
Cc1ccc(-c2nc3n(n2)C(=O)CC(c2ccc(C)cc2)S3)cc1 (stereo not drawn),1.3%,-0.6
CCOC(=O)c1cnc2ccc(C(=O)OC)cc2c1Nc1ccc(OCc2ccccc2Cl)cc1,-3.6%,1.5
Cc1cccc(-n2c(=O)c3c(c4cc(C)ccc4n3C)n(C)c2=O)c1,2.0%,2.3
COc1ccccc1NC(=O)Cn1c(=O)n(Cc2ccccc2)c(=O)c2c3c(sc21)CN(C(C)=O)CC3,-0.1%,0.2
CCOC(=O)c1ccc(CN(Cc2ccc(F)cc2)S(=O)(=O)c2cc(C(=O)Nc3ccccc3CC)ccc2F)cc1,-0.5%,1.4
COc1ccc(NCc2cccn2-c2nnc(N3CCCCC3)s2)cc1OC,-3.4%,1.1
CCCCN(C)c1nnc(NC(=O)Nc2cccc(C(C)=O)c2)s1,-0.4%,0.4
C=C1NN(Cc2ccc(OC)cc2)C(=O)N1c1ccccc1,-0.2%,-0.6
COc1ccc(-c2cc(C(F)(F)F)nc(SCCC(=O)Nc3ccc(O)cc3)n2)cc1,2.8%,3.4
O=C(Cn1nc(-c2ccc(Cl)cc2)ccc1=O)NCc1ccccc1Cl,-3.0%,0.9
Cc1ccc(C)c(NC(=O)CN2CCN(C3CCCCC3)C(=O)C2=O)c1,9.8%,0.2
COc1ccc2nccc(/C=C/c3ccc(N(C)C)cc3)c2c1,4.8%,10
Cn1cc(S(=O)(=O)N2CCCCC2)cc1C(=O)NCc1ccc(Cl)cc1,0.4%,2.8
CC1=C(c2ccc(F)cc2)S(=O)(=O)N=C1N1CCC(C(=O)NCCc2cccc(C)c2)CC1,7.1%,4.1
Cc1ccc(-c2noc(C3CC(=O)N(c4ccc5c(c4)OCCO5)C3)n2)cc1 (stereo not drawn),2.4%,1.0
COc1ccc(CCN2C(=O)N(c3ccc(F)cc3)C(=O)C2CC(=O)Nc2ccc(F)c(F)c2)cc1 (stereo not drawn),2.8%,-0.2
CC(C)c1nn2c(=O)cc(COC(=O)c3ccccc3NC(=O)c3cccs3)nc2s1,0.9%,1.9
COc1ccccc1N1CCN(C(=O)C2CCN(S(=O)(=O)c3cccc4nonc34)CC2)CC1,1.4%,1.1
CCc1ccccc1NC(=O)Cn1nnc2sc3c(c2c1=O)CCC(C(C)(C)C)C3 (stereo not drawn),0.8%,2.3
CC1CCC(Nc2ncnc3onc(-c4ccc(F)cc4)c23)CC1 (stereo not drawn),2.6%,3.5
OC(CBr)CN1CCCCC1 (stereo not drawn),2.3%,-0.4
Cc1ccc2c(c1)N(C(=O)C1CCN(S(=O)(=O)c3c(C)noc3/C=C/c3ccccc3F)CC1)CCO2,-0.3%,1.4
CC1CCCCN1c1csc2ccc(F)cc2c1=O (stereo not drawn),1.4%,-0.8
O=C(Nc1ccc(Cl)cc1)C1CCN(S(=O)(=O)c2ccc(Br)s2)CC1,18µM*,3.1
Cc1cccc(N2CCN(C(=O)c3ccc4c(Cl)c5c(nc4c3)CCCC5)CC2C)c1 (stereo not drawn),1.1%,0.7
O=S(=O)(Nc1cccc2cccnc12)c1cccc2ccccc12,-0.3%,1.2
CNc1nc(NCc2ccco2)c2ccccc2n1,2.4%,70*
Cn1cnc(S(=O)(=O)N2CCC(C(=O)NCc3ccccc3Cl)CC2)c1,-0.5%,1.5
COc1cc2oc(=O)c(CC(=O)N3CCCCC3)c(C)c2cc1Cl,1.8%,-0.2

# Additional records:
Structure,PINK1 expr mod,TRPML1 agonist
COc1ccc(OC)c(NC(=O)Cn2c(=O)n(Cc3nc(C)no3)c(=O)c3ccccc32)c1,3.8%,0.0
COc1ccc(Cn2ccc3nc(C)c(C(=O)Nc4cccc(SC)c4)cc3c2=O)cc1,0.1%,2.0
COc1ccc(C)cc1NC1(c2ccccc2)C(=O)c2ccccc2C1=O,-4.6%,1.6
Cc1cccc2nc(Cn3c(=O)n(-c4ccc(Cl)cc4)c(=O)c4c5c(sc43)CCC5)cc(=O)n12,1.2%,-0.1
CN(C)C(=O)c1ccc2c(c1)N(CC(=O)NCc1ccc(F)cc1)C(=O)C1CCCCN21 (stereo not drawn),0.8%,-1.2
Cc1c(C(=O)NCc2ccccc2Cl)cccc1-n1cnc2cccnc21,-0.1%,1.7
Cc1ccc(NC(=O)C(=O)NCC(c2cccnc2)N2CCN(Cc3ccccc3)CC2)cc1 (stereo not drawn),2.1%,0.1
Cc1cc2nn(-c3ccc(Cl)cc3)nc2cc1NC(=O)C(C)C,2.9%,1.0
COC(=O)c1ccc(NC(=O)c2nc(S(=O)(=O)Cc3ccccc3F)ncc2Cl)cc1,-0.3%,1.2
COCCCn1c(=O)c2sccc2n2c(CCCC(=O)Nc3cccc(OC)c3)nnc12,-0.8%,2.2
CCn1c(SCC(=O)Nc2ccc(C)c(C)c2)nnc1-c1nonc1NC(C)=O,3.1%,0.5
Cc1cccc(N2CCN(S(=O)(=O)c3nnc(NC(=O)c4ccc(Cl)cc4)s3)CC2)c1,-1.7%,0.9
O=C(NCCc1ccc(Cl)cc1)c1ccc2c(c1)N(Cc1ccc(F)cc1)C(=O)CS2,0.4%,2.7
Cc1nc(N2CCOCC2)c2c(C(=O)N3CCN(c4cccc(C(F)(F)F)c4)CC3)c(C)oc2n1,5.8%,0.4
Cc1ccccc1OCCSc1nc2ccc(NC(=O)c3ccccc3)cc2s1,-0.6%,1.9
COc1ccc(NC(=O)CSc2nc(-c3ccc(OC)c(OC)c3)[nH]c2-c2ccc(C)cc2)cc1,-1.1%,0.9

# Only part of the results is shown; rates above refer to the full screens.
